Screening data from PubChem BioAssay.
Biofilm kill mix: mixture kills Candida albicans biofilm cells | inhibition, % at 7.6 µM | AID 1242 | 0.02% of 120,000 active | C. albicans biofilm persisters + clotrimazole, fluorescence viability; primary screen in compound mixtures of four per well;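 active means inhibition above 30.3% in the primary screen of four-compound pools, then above 30% when the compound was retested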;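 further: compounds exposed to preformed 24 h biofilms for 48 h; the number belongs to the whole pool; some results filed as inactive read as strong as hits; inactives centre near 12; 0% = biofilm with clotrimazole alone and 100% = kill control; retested singly at about 60 µM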
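Probe or stimulus – Clotrimazole 50 µg/mL co-treatment · System – C. albicans biofilms · Schedule – 24 h biofilm formation, then 48 h compound exposure, 37 °C · Evaluation – percent inhibition of biofilm viability · Technique – 2-h Alamar Blue fluorescence, 535/590 nm excitation/emission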
* marks the source's active call; other numbers are inactive results. These rows are one share of the data, so the mix of outcomes need not match the whole.

SMILES | Biofilm kill mix
Cc1cc(NC(=O)CSCC(=O)N(c2ccc(F)cc2)C(C(=O)NC2CCCCC2)c2ccc(O)c(O)c2)no1 (centres undefined) | -3.1
Cc1nc(-c2cccc(Br)c2)ccc1C(=O)O | 16.6
COc1cc(/C=N/NC(=O)c2ccc(COc3cc(C)ccc3C(C)C)cc2)cc(OC)c1O | 10.4
CCOc1cc(/C=N/Nc2nncc(-c3ccccc3)n2)ccc1O | -5.4
CCN(CC)CCNC(=O)C(=O)NCC1OCCN1S(=O)(=O)c1ccc2c(c1)OCCO2 (centres undefined) | 6.1
CC(C)c1nnc(SCC(=O)N2CCOCC2)n1C | 19.3
O=C1COc2ccc(C(=O)COC(=O)CNC(=O)c3ccco3)cc2N1 | 21.6
O=C(O)c1ccc(/C=C2\SC(=Nc3ccccc3)N(c3ccccc3)C2=O)cc1 | 12.8
C/C(=N\Nc1ccccn1)c1ccc2c(c1)OCO2 | 18.7
COc1ccccc1NS(=O)(=O)c1ccc(O)c(C(=O)OCC(=O)c2ccc(Cl)cc2Cl)c1 | 8.5
Cn1nc(C(=O)Nc2nc(-c3ccc(F)cc3)cs2)ccc1=O | 13.7
Cc1ccc(C(=O)C(C)Oc2cccc(NC(=O)c3ccco3)c2)cc1 (centres undefined) | 10.5
C=CCN(C(=O)CNC(=O)c1cccs1)C(C(=O)NC(C)(C)C)c1ccccc1 (centres undefined) | -6.6
COc1ccc(N2C(S)=C(C#N)C(=O)NC2c2ccco2)cc1 (centres undefined) | 13.3
O=S1(=O)CCN(C(CCO)c2cccc(C(F)(F)F)c2)CC1 (centres undefined) | 15.8
CC1(C)CCC(C)(C)NC(=S)N1 | -5.2
NC(=O)CCS(=O)(=O)c1ccc(Cl)cc1 | 16.6
CC1=C/C(=N\NC(=S)Nc2cccnc2)CC(C)(C)C1 | 9.8
Cc1ccc(NC(=O)COc2ncnc3c(Cl)cc(Cl)cc23)cc1[N+](=O)[O-] | 18.8
O=C(CN1CCCC1)NN=C(c1ccccc1)c1ccccc1 | 16.6
Cc1cccc(C)c1NC1=NCCCCC1 | 9.0
O=C1/C(=C/c2ccco2)SC(=S)N1c1cccnc1 | 9.6
CCCCOc1ccc(NC(=O)CSc2cccc3cccnc23)cc1 | 19.1
Cc1ccc(NC(=O)CN2C(=O)S/C(=C\c3cc(C)n(-c4cccc(C(=O)O)c4)c3C)C2=O)cc1 | -0.4
CCN(CCNC(=O)C1=C(C)C(=O)OC12CCC(C)CC2)c1ccccc1 (centres undefined) | 20.2
Fc1ccc(COc2ccccc2CNCc2ccncc2)cc1 | 10.7
COc1ccc([N+](=O)[O-])cc1NC(=O)C(C)OC(=O)c1ccccn1 (centres undefined) | 14.2
COc1ccc2c(c1)-c1c(ssc1=S)C(C)(C)N2S(=O)(=O)c1ccc(C)cc1 | 10.4
Cc1cc(C(=O)Nc2ccc(Cl)cc2)c(C)n1Cc1cccs1 | 5.7
CCC1CCC2(CC1)NC(=O)N(CC(=O)c1c(C)[nH]c3ccccc13)C2=O (centres undefined) | 13.9
CCOc1ccccc1/C=N/NC(=O)CSc1n[nH]c(=O)[nH]c1=O | 16.0
COc1ccc2c(c1)c1nc3ccccc3nc1n2Cc1ccc(OC(C)C)c(OC)c1 | 20.2
C/C(=N\Nc1cccc2cccnc12)c1ccc(N)cc1 | 11.5
COc1cc(/C=C2\SC(=O)N(CCNC(=O)c3sc4cc(F)ccc4c3Cl)C2=O)cc(OC)c1OC | 4.9
O=C1CC(N2CCc3ccccc32)C(=O)N1c1ccccc1 (centres undefined) | 8.2
CCn1c(P(C)(=O)O)nc2cc(NC(=O)c3ccccc3Cl)ccc21 | -5.7
COC(CN1CCc2c(C)nc3c(C#N)cnn3c21)OC | 13.1
Cc1ccccc1NC(=O)COC(=O)CCSc1ccccc1 | 1.3
S=C(Nc1ccccc1)Nc1ccc(Br)cc1 | 2.3
O=C(COC(=O)Cc1ccccc1[N+](=O)[O-])NCc1ccc(Cl)cc1 | 16.8
COc1ccc(C(=O)Nc2ccc(-c3nnn(CC(=O)NCc4ccco4)n3)cc2)cc1 | 8.1
COc1ccc(-c2cc(N3C(=O)Nc4ccccc4N3O)n[nH]2)cc1OC | 13.3
O=C(Nc1ccccc1)c1cccnc1NCCc1ccccc1 | 10.4
Cc1ccc(NC(=O)CSc2nnc(-c3cccnc3)n2CCN2CCCCC2)cc1 | 15.8
CCOCCCNC(=O)N[C@H](C(=O)OC)C(C)CC (some centres undefined) | 21.0

An excerpt of these results, as a markdown table:
| SMILES | Biofilm kill mix |
| --- | --- |
| O=C(Nc1ccccc1)c1cccnc1NCCc1ccccc1 | 10.4 |
| Cc1ccc(NC(=O)CSc2nnc(-c3cccnc3)n2CCN2CCCCC2)cc1 | 15.8 |
| O=C(COC(=O)Cc1ccccc1[N+](=O)[O-])NCc1ccc(Cl)cc1 | 16.8 |
| COc1ccc(-c2cc(N3C(=O)Nc4ccccc4N3O)n[nH]2)cc1OC | 13.3 |
| C/C(=N\Nc1cccc2cccnc12)c1ccc(N)cc1 | 11.5 |
| COC(CN1CCc2c(C)nc3c(C#N)cnn3c21)OC | 13.1 |

(next part)
SMILES | Biofilm kill mix
O=C(CN1C(=O)NC2(CCc3ccccc3C2)C1=O)NCc1ccco1 (centres undefined) | 0.0
COc1ccc(C(=O)NCC(=O)OCc2ccccc2F)cc1 | 8.1
COc1ccc(CNC(=O)C(=O)NCC2OCCN2S(=O)(=O)c2ccc3c(c2)OCCO3)cc1 (centres undefined) | 18.3
CC[N+](C)(CC)CC(=O)OCC1C(C)C=C(C)CC1C (centres undefined) | 19.7
CSc1ncc(S(=O)(=O)c2ccccc2)c(=O)[nH]1 | 9.2
CC(C)n1c(O)c(N=Nc2ccc(Cl)c(C(=O)O)c2)c2ccccc21 | 14.8
Cc1oc(-c2ccc3ccccc3c2)nc1CN(C)C(C)c1ccncn1 (centres undefined) | 21.3
O=C1OCCN1C(=O)[C@H]1[C@H](c2ccc(Cl)cc2)C(c2cccc(Cl)c2)=NN1c1ccccc1 | 16.0
O=S(=O)(c1ccc2nc(SCc3cccc(Cl)c3)[nH]c2c1)N1CCOCC1 | 10.1
OCC1(Cc2ccccc2)CCN(Cc2ccc(C(F)(F)F)cc2)CC1 | 5.4
Cc1ccccc1NC(=S)NC(C)C(c1cccs1)N1CCOCC1 (centres undefined) | -7.9
CCOC1=NN(c2ncc(C(F)(F)F)cc2Cl)C(=O)C1 | 1.8
N#Cc1ccccc1Cn1cc(/C=C/[N+](=O)[O-])c2ccccc21 | 8.8
O=C(O)C1CC=CCC1C(=O)N1CC=C(c2ccccc2)CC1 (centres undefined) | 25.3
O=C(Nc1ccc2c(c1)OCCO2)C1CCN(S(=O)(=O)c2ccccc2)CC1 | 17.1
CCOC(=O)c1c(NC(=O)COC(=O)c2c(C)noc2C)sc2c1CCC2 | -9.6
CC/C=C\[C@H](O)[C@H](O)C1=C(C)C(=O)[C@]2(O1)C(=O)N[C@@](OC)(C(=O)c1ccccc1)C2O (some centres undefined) | 16.4
CC(C)CNC(=O)NC(=O)COC(=O)c1cc([N+](=O)[O-])ccc1NCc1ccccc1Cl | 15.1
NS(=O)(=O)c1ccc(CCn2c(=S)[nH]c3ccccc3c2=O)cc1 | 31.7
C[C@@H]1CN(C2CCN(Cc3nc(C(c4ccccc4)c4ccccc4)no3)CC2)C[C@H](C)O1 | 17.9
CCNC(=S)Nc1c(C)n(C)n(-c2ccccc2)c1=O | 13.5
CCOc1ccc(-c2c(C(=O)N/N=C/c3ccc(C)cc3)nnn2-c2nonc2N)cc1 | 27.6
CCn1c(SCC(=O)N/N=C/c2cc(OC)c(O)c(OC)c2)nc2ccccc21 | -7.7
Cc1ccc(CNC(=O)COC(=O)Cn2nc(C)c([N+](=O)[O-])c2C)cc1 | 2.3
CC(=O)OCC(=O)N1N=C(c2ccc3ccccc3c2)CC1c1ccccc1 (centres undefined) | 6.2
Cn1cnc(S(=O)(=O)Nc2ccc(OC(F)(F)F)cc2)c1 | 15.2
COc1cc([N+](=O)[O-])ccc1N | 6.9
O=C(O)c1ccc(NCCC2=CCCCC2)c([N+](=O)[O-])c1 | 14.6
O=C(NNC(=O)c1cccs1)c1ccc2ccccc2c1 | 9.5
O=C(COC(=O)CC(c1ccccc1)c1ccccc1)Nc1cccc(F)c1 | 19.2

Part of the list above, as tab-separated lines.
Compound	Biofilm kill mix
CCOC(=O)c1c(NC(=O)COC(=O)c2c(C)noc2C)sc2c1CCC2	-9.6
CC/C=C\[C@H](O)[C@H](O)C1=C(C)C(=O)[C@]2(O1)C(=O)N[C@@](OC)(C(=O)c1ccccc1)C2O (some centres undefined)	16.4

Following part:
SMILES | Biofilm kill mix
COCCCNC(=S)NNC(=S)NCCCOC | 4.4
CC(C)N1CCN(Cc2ccncc2)CC1CCO (centres undefined) | 13.9
CCC(C)NC(=S)N1CCN(C(c2ccccc2)c2ccccc2)CC1 (centres undefined) | 15.7
O=C(O)CCC(=O)c1ccc2ccc3cccc4ccc1c2c34 | 4.7
O=C(CC1C(=O)N(c2ccccc2)C(=S)N1c1ccccc1)c1ccccc1 (centres undefined) | 18.2
COC(=O)c1ccc(C#Cc2ccccc2)o1 | 6.4
O=C(Nc1ccc(F)cc1)c1cn(-c2ccccc2)nc1-c1ccncc1 | 6.3
O=C(COc1ccc(/C=C\[N+](=O)[O-])cc1)N1CCOCC1 | 12.9
Cc1ccc(Nc2nnc(SCC(=O)Nc3cccnc3Cl)s2)cc1C | 4.8
CCNC(=O)NC(=O)COC(=O)c1cccc(NS(=O)(=O)/C=C/c2ccccc2)c1 | 11.6
Cc1ccc(CN(Cc2ccco2)C(=S)Nc2ccccc2C)cc1 | 7.8
O=c1[nH]c(CN2CCOCC2)nc2scc(-c3ccccc3)c12 | 9.8
CCc1ccccc1NC(=O)c1noc(C(C)C)c1[N+](=O)[O-] | 3.1
Oc1ccc(-c2cnns2)c(O)c1 | -17.6
CCC(=O)c1c(NC(C)C)cc(C)oc1=O | 25.6
O=C(CN1CCc2ccccc21)NC(=O)NCc1ccccc1 | -6.2
Cc1ccc2nc(C)c(C(=O)N/N=C/c3ccc(C(=O)O)cc3)cc2c1 | 26.8
COc1cccc(NC(=S)N2CCCC2)c1 | 10.5
CCn1nc(NC(=O)c2ccco2)c2cc3cc(C)ccc3nc21 | 12.0
Cc1cnc([N+](=O)[O-])n1CCOC(=O)NC(=O)c1ccc(C(F)(F)F)cc1 | 30.4
CCn1cc(C(=O)OCC(=O)c2cc(C)n(-c3ccc(OC(F)F)cc3)c2C)c(=O)c2ccc(C)nc21 | 6.7
CCOc1cc(C2Nc3ccccc3C(=O)N2c2ccccc2)c(Br)cc1OCC(=O)O (centres undefined) | 7.0
O=C(NC1CCCC1)C(c1ccncc1)N(C(=O)Cc1cccs1)c1ccccc1 (centres undefined) | 7.4
CCN(CC)c1ncnc2scc(C3COc4ccccc4O3)c12 (centres undefined) | 9.7
COc1cc(/C=N/NC(=O)c2c(-c3ccccc3)noc2C)cc(OC)c1OC | 18.2
COc1ccc(NC(=O)Cn2nc(C)c([N+](=O)[O-])c2C)cn1 | 9.7
COc1ccccc1N(C(=O)CNC(=O)c1ccco1)C(C(=O)NC1CCCC1)c1ccncc1 (centres undefined) | 8.2
O=C(/C(=C(/[O-])c1ccccc1)[n+]1ccccc1)c1ccc([N+](=O)[O-])cc1 | 11.9
Cc1ccc(Nc2nc(NCCCN3CCOCC3)nc(N)c2[N+](=O)[O-])cc1C | 3.5
O=C(Nc1ccccn1)c1ccc([N+](=O)[O-])cc1Cl | 15.4
COc1ccccc1-n1cn[nH]c1=S | 20.5
CN1CCC(N(C)C(=S)Nc2ccc(SC(F)F)cc2)CC1 | 14.4
CC(=O)Nc1ccc(NC(=O)CSc2ccc(-c3ccco3)nn2)cc1 | 4.5
CC1(C)CCCC(C)(C)N1CC(O)COCCOc1ccc(Br)cc1 (centres undefined) | 5.3
N#CC1=C(N)C2=CCCC[C@H]2[C@H](c2ccccc2)C1(C#N)C#N | 6.8
Cc1ccc(S(=O)(=O)C(C)C(=O)NCCS(=O)(=O)c2ccc(Cl)cc2)cc1 (centres undefined) | 7.3
Cc1nc(N2CCOCC2)sc1C=O | 0.7
COc1ccc(/C=N/OCC(=O)N(Cc2ccccc2)c2ccccc2C(=O)O)cc1 | 2.8
COC(=O)c1cnn(-c2ccccc2)c1/C=N/NC(=S)Nc1ccc(Cl)cc1 | 5.0
O=C(NN=C1CCN(Cc2ccccc2)CC1)c1ccccc1 | 11.4
CS(=O)(=O)c1ccccc1-c1nnc(-c2ccc(Cl)cc2)o1 | 4.7
Cc1nn(CCC#N)c(N)c1C1(O)C(=O)Nc2c(Cl)cc(Cl)cc21 (centres undefined) | 29.1
COCCN(C(=O)C(=O)NC1CCCC1)C(C(=O)NC1CCCC1)c1ccccc1F (centres undefined) | 2.5
CCOC(=O)c1cc(NC(=O)c2ccco2)ccc1N1CCOCC1 | 13.4
O=C1C2C3C=CC(C4CC34)C2C(=O)N1c1cc(Cl)ccn1 (centres undefined) | 31.2

In another format: 3 of the compounds above
mol,Biofilm kill mix
O=C1C2C3C=CC(C4CC34)C2C(=O)N1c1cc(Cl)ccn1 (centres undefined),31.2
CC(=O)Nc1ccc(NC(=O)CSc2ccc(-c3ccco3)nn2)cc1,4.5
O=C(NN=C1CCN(Cc2ccccc2)CC1)c1ccccc1,11.4

Following part:
SMILES | Biofilm kill mix
Cc1cc(C#N)c(SCC(N)=O)nc1-c1ccc(F)cc1 | 0.0
CN(C)C(CNC(=O)CCOc1ccccc1)c1ccco1 (centres undefined) | 7.1
CC(C)COC(=O)n1c(SCC(N)=O)nc2ccccc21 | 14.8
Cc1ccccc1CSCCNC(=O)c1ccccc1 | 20.2
COc1ccc(-c2c(C)nn3c(N4CCC(C(=O)N5CCCCC5)CC4)cc(C)nc23)cc1OC | 12.4
Cn1c2ccc(F)cc2c2nnc(NN)nc21 | 23.9
OCCC1CN(Cc2ccc(-c3ccco3)cc2)CCN1Cc1ccsc1 (centres undefined) | 3.1
CSc1nc(N)nc(SCC(=O)Nc2cccc(F)c2)c1C#N | -5.9
